Autofluor counter: compound fluorescence in toxin protease inhibitor counterscreen; fluorescence intensity (test concentration not listed); compound autofluorescence counterscreen, microsphere flow cytometry; stronger effect = higher value; AID 624483; hit rate 3.1% among 360,000;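 active means at least 3 SD above the mean of all compounds, about 16000 in these data; inconclusive means too few beads counted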;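 further: 100 nL of 1 mM stock went into each well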
PrP 5UTR inh: suppresses PrP 5' UTR mRNA reporter expression; cell-based PrP 5' UTR mRNA reporter, plate reader; hit rate 0.35% among 340,000; inhibition, % (concentration not given with the values); AID 488862;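 active means every replicate at 50% or more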;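 further: 0 = median of the neutral control wells; tested in H4 reporter cells; numbers are from one replicate; inactives centre near -14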
RN4220 kill: kills Staphylococcus aureus RN4220; S. aureus RN4220 growth, OD600, 16 h; inhibition, % (no concentration beside the values); hit rate 0.33% among 330,000; AID 1259311;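 active means z-score of -3 or lower and OD600 up to 0.18 on both plates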;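 further: plate controls were untreated cells for no effect and reference antibiotic for full effect; stock transfer was 100 nL into about 80 µL; one replicate is shown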
BJeLR viability: kills HRASV12-expressing BJeLR cells. BJeLR (HRASV12) viability, CellTiter-Glo ATP luminescence, 48 h; reference of the scale not given here. inhibition, % (no concentration beside the values). hit rate 0.17% among 300,000;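 active means replicate mean above 50%; inconclusive means above 50% but judged a plate artefact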;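 further: 50 nL library stock added to about 25 µL; numbers are from one replicate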
ugtP null kill: growth inhibition of S. aureus ugtP deletion strain; S. aureus RN4220 ugtP deletion, OD600 growth, 16 h; some inactives read as strong as hits; growth inhibition, % (test concentration not listed); hit rate 0.54% among 330,000;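 active means z-score under -3 and OD600 up to 0.15 on both plates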;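 further: plate controls were untreated wells for no effect and antibiotic for full effect; wells of about 80 µL received 100 nL stock; the first replicate is given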
Mtb hypoxia rep: inhibitors of hypoxia-regulated fluorescent reporter in Mycobacterium tuberculosis | hit rate 0.1% among 300,000 | fluorescence inhibition, % (concentration not given with the values) | M. tuberculosis hypoxia-regulated fluorescent reporter, fluorescence;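 active means 35 to 45% if threefold the growth effect, above 45% if 1.5-fold the growth effect; inactive means the rest, general growth blockers included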;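 further: wells of about 50 µL received 100 nL stock; 0% = vehicle wells and 100% = reference inhibitor wells; whole bacteria with a GFP reporter of the hypoxia response; strong numbers were not always called active; many hits fall short of the cut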
Mtb hypoxia rep growth: recorded beside Mtb hypoxia rep, whose call it bears; growth inhibition, %; measured here: M. tuberculosis growth (absorbance);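 0% = vehicle and 100% = reference antibiotic; read after six days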
* hit, by the source's call; u = inconclusive; x = not tested or not shown; & = joins results of further samples. Rows were taken by chance; about 3.9% have a hit in one of these screens.

SMILES	Autofluor counter	PrP 5UTR inh	RN4220 kill	BJeLR viability	ugtP null kill	Mtb hypoxia rep	Mtb hypoxia rep growth
COc1ccc(-n2nnc3c(SCC(=O)Nc4ccc5c(c4)OCCO5)ncnc32)cc1	x	x	-15	x	-3	5	6
CCN1CCN(C(=O)c2c(-c3c(Cl)cccc3Cl)noc2C)CC1	5579	-9	1.7	3	4	0	4
Cc1nn(CC(=O)Nc2ccc(C(=O)N3CCCCC3)cc2)c(=O)c2ccccc12	11058	7	1.6	8	0	10	5
Cc1cccc(-n2ncc3c2CCCC3NC(=O)CCN2CCCCO2)c1C (stereo not drawn)	6103	-10	3.1	-1	4	11	0
COc1cc2c3c(c1)C1(C(=O)N3C(C)(C)C=C2C)C(C#N)=C(N)Oc2cc(C)oc(=O)c21 (stereo not drawn)	3256	-11&4	-12	1	-1	6	7
CCOC(=O)c1nn(-c2ccccc2F)c(C)c1C(C)=O	3420	-12	2.6	8	1	11	8
CC1(C)CC(NC(=O)c2ccccc2Cl)CC(C)(C)N1	3222	-21	6.2	0	1	14	12
CCCC(=O)Nc1ccccc1NC(=O)c1cc(OC)c(OC)c(OC)c1	u	-21	2.0	2	3	1	-6
CCn1c(=O)c2cc(C(=O)N(C)CC(OC)OC)sc2c2ccccc21	2981	15	3.7	1	1	-14	3
COc1ccc(OC)c(NC(=O)C2CC(=O)N(c3ccccc3)C2)c1 (stereo not drawn)	2457	-10	3.5	5	12	6	1
CSc1ccc(S(=O)(=O)NCC(=O)OCC(=O)N(C)Cc2ccccc2)cc1[N+](=O)[O-]	5930	-7	5.1	-7	7	5	5
O=C(NCc1ccccc1)C(c1ccccc1)N(C(=O)c1csnn1)C1CCCC1 (stereo not drawn)	4008	4	-1.8	-2	13	3	3
Cc1cc(Nc2cccc(Cl)n2)n(-c2ccccc2)n1	3875	-12	3.8	1	12	12	4
CC(C)c1nccn1CCC(=O)O	9891	-13	11	-1	1	5	12
O=C1c2ccccc2C(=O)N1c1ncn[nH]1	5493	-8	1.9	-6	3	10	-1
Nc1ccccc1SCc1csc(-c2ccc(Cl)cc2)n1	3657	-34	-9.3	0	58	13	7
CC(C)(C)N(NS(=O)(=O)c1ccc(F)cc1)c1ccccc1	3245	-11	0.2	3	3	15	8
Cc1ccc(/C=N/NC(=O)c2cccc(S(=O)(=O)N3CCOCC3)c2)o1	4523	11	x	-5	x	x	x
Cc1nc(-c2ccc(S(=O)(=O)N3CCN(C(c4ccccc4)c4ccccc4)CC3)s2)cs1	3184	-15	-1.6	0	0	5	3
O=C(Nc1ccccc1Cl)C(=O)c1cn(CC(=O)N2CCOCC2)c2ccccc12	5855	-76	0.9	2	3	-5	-4
COc1ccc(/C=N\NC(=O)CCc2c(C)n[nH]c2C)c(OC)c1OC	2209	-21	x	-6	x	x	x
COC(=O)c1cccc(NC(=O)NC2CCCN2S(=O)(=O)c2ccc(Cl)cc2)c1 (stereo not drawn)	3243	-25	-15	-2	-8	1	8
O=C(Cc1ccccc1F)NC1CCSc2ccccc21 (stereo not drawn)	4884	-19	-0.9	7	12	6	2
COc1cc([N+](=O)[O-])ccc1NC(=O)NCc1ccco1	4667	-22	5.7	-2	6	21	13
CC(C)Cc1cc(C(=O)Nc2sc3c(c2C#N)CCC3)no1	4239	0	-7.8	0	-7	-2	11
COc1cc(C(=O)NCC(=O)N2CCN(S(=O)(=O)c3ccccc3C(F)(F)F)CC2)cc(OC)c1OC	8008	-44	4.6	x	6	6	3
O=C(c1ccco1)N1CCN(C(=O)C(Cc2ccccc2)NS(=O)(=O)c2cccs2)CC1 (stereo not drawn)	u	2	1.0	x	-2	3	0
O=C(COC(=O)c1ccccc1F)Nc1cc(S(=O)(=O)N2CCOCC2)ccc1N1CCCC1	4669	-6	7.4	5	6	16	0
O=[N+]([O-])c1ccccc1S(=O)(=O)N1CCN(Cc2cc3c(cc2O)OCO3)CC1	3472	-10	5.0	8	6	11	-2
COc1ccccc1C(=O)Nc1nnc(-c2ccc(Cl)cc2)o1	8655	-19	6.9	-1	9	15	6
NC(=O)c1ccc(NC(=O)COc2ccc([N+](=O)[O-])cc2Cl)cc1	4001	-5	-2.4	12	-5	-1	-2
O=C(Nc1ccccc1)C1CCN(S(=O)(=O)c2ccc3c(c2)OCCO3)CC1	5830	-23	-0.1	-7	3	5	-6
Cc1ccc(CNC(=O)Cn2cccc2)cc1	4173	-17	2.3	0	9	20	8
CCN1C(=O)CC(N2CCC(Nc3ccc(OC)cc3)CC2)C1=O (stereo not drawn)	2553	-7	0.8	x	0	x	x
Cc1ccc(C(=O)CNc2cccc([N+](=O)[O-])c2)cc1	2242	-32	14	-2	6	7	8
CC(C)CN(C(=O)COC(=O)CCCc1nc2ccccc2s1)c1c(N)n(Cc2ccccc2)c(=O)[nH]c1=O	u	-15	3.8	0	8	3	11
COC(=O)C(=O)C/C(=N/Nc1ncnc2ccccc12)c1ccc(Cl)cc1	4520	-3	x	-3	x	x	x
Cc1sc(NC(=O)C2CCCCC2)c(C#N)c1-c1ccccc1	2406	-120	2.3	0	7	9	15
C=CCCCCCCCCc1nc(SCC(C)=O)n[nH]1	4527	-15	-2.0	2	1	-8	10
COc1cc(C(=O)Nc2nc3ccc4nc(C)sc4c3s2)cc(OC)c1OC	7551	-31	-1.5	-7	-5	9	4

Single records, as listed above. Screens in order: Autofluor counter | PrP 5UTR inh | RN4220 kill | BJeLR viability | ugtP null kill | Mtb hypoxia rep | Mtb hypoxia rep growth
Entry for COc1cc(C(=O)Nc2nc3ccc4nc(C)sc4c3s2)cc(OC)c1OC = 7551 | -31 | -1.5 | -7 | -5 | 9 | 4
Entry for CC(C)CN(C(=O)COC(=O)CCCc1nc2ccccc2s1)c1c(N)n(Cc2ccccc2)c(=O)[nH]c1=O = u | -15 | 3.8 | 0 | 8 | 3 | 11

Following part.
SMILES	Autofluor counter	PrP 5UTR inh	RN4220 kill	BJeLR viability	ugtP null kill	Mtb hypoxia rep	Mtb hypoxia rep growth
CCN(CC)CCn1c2ccc(F)cc2c2nc(C)sc21	9114	4	0.7	5	-3	13	3
CCC(c1ccccc1)C(CC)c1cc(O)c(O)c(O)c1 (stereo not drawn)	2787	-20	-7.2	x	-9	15	7
O=C(NCc1ccccc1)c1ccc(-c2ccc(F)cc2)o1	21149*	-17	-8.7	3	5	-9	-2
Cc1ccn2c(=O)c(C(=O)NCCN3CCOCC3)c(O)nc2c1	5324	-25	2.2	6	10	8	-1
c1ccc(CCCNCC2COc3ccccc3O2)cc1 (stereo not drawn)	2421	-7	3.9	-4	7	-6	3
O=c1[nH][nH]c(=O)c2cc(N3CCCC3)ccc12	4247	-27	7.5	-8	0	5	12
O=C(c1ccc(Br)cc1)C12CN3CN(CN(C3)C1)C2	4264	-20	4.8	3	2	14	12
COc1ccc(OC)c(C=NNC(=O)c2nnn(-c3nonc3N)c2-c2cccs2)c1	x	x	1.5	x	12	2	-7
COc1ccc(-c2nnn(CC(=O)NC(=O)NC3CCCCC3)n2)cc1OC	3895	-7	3.6	x	6	-10	7
O=C(COC(=O)C1(c2ccc(F)cc2)CCCC1)N1CCN(C(=O)c2ccco2)CC1	u	0	-17	8	-4	1	4

Only PrP 5UTR inh, RN4220 kill and ugtP null kill (3 entries from above):
structure,PrP 5UTR inh,RN4220 kill,ugtP null kill
COc1ccc(OC)c(C=NNC(=O)c2nnn(-c3nonc3N)c2-c2cccs2)c1,x,1.5,12
COc1ccc(-c2nnn(CC(=O)NC(=O)NC3CCCCC3)n2)cc1OC,-7,3.6,6
O=C(COC(=O)C1(c2ccc(F)cc2)CCCC1)N1CCN(C(=O)c2ccco2)CC1,0,-17,-4

Some values from the list:
O=C(NCc1ccccc1)c1ccc(-c2ccc(F)cc2)o1 in ugtP null kill → 5
O=C(c1ccc(Br)cc1)C12CN3CN(CN(C3)C1)C2 in ugtP null kill → 2
c1ccc(CCCNCC2COc3ccccc3O2)cc1 (stereo not drawn) in BJeLR viability → -4
O=C(COC(=O)C1(c2ccc(F)cc2)CCCC1)N1CCN(C(=O)c2ccco2)CC1 in RN4220 kill → -17
Cc1ccn2c(=O)c(C(=O)NCCN3CCOCC3)c(O)nc2c1 in Mtb hypoxia rep → 8

(further entries)
SMILES	Autofluor counter	PrP 5UTR inh	RN4220 kill	BJeLR viability	ugtP null kill	Mtb hypoxia rep	Mtb hypoxia rep growth
Cc1ccccc1CSc1nnc(-c2ccccn2)n1C	x	x	5.1	9	5	12	10
O=C(N/N=C/c1ccc([N+](=O)[O-])o1)c1cccc(S(=O)(=O)N2CCOCC2)c1	4440	-6	x	-7	x	x	x
Cc1cccc(NC(=O)C2CC(=O)NC(Nc3nc4ccccc4s3)=N2)c1 (stereo not drawn)	x	x	4.3	10	-2	6	-3
COCCNC(=O)CSc1nc2ccccc2c(=O)n1CC1CCCO1 (stereo not drawn)	5466	-27	3.6	1	7	13	6
CC1CN(C(=O)c2cc([N+](=O)[O-])cc([N+](=O)[O-])c2)CC(C)O1 (stereo not drawn)	4331	-26	1.6	-9	4	13	28
O=C1NC[C@H](c2ccccc2)N(CCc2cccc3ccccc23)C1=O	3446	-15	x	0	x	x	x
COC(=O)c1ccc(NC(=O)CN(c2ccc(C)cc2)S(=O)(=O)c2c(C)n[nH]c2C)cc1	4408	-22	1.9	-4	21	-2	2
CCCCCCn1nc(C(=O)N(CC(C)C)c2c(N)n(CCCC)c(=O)[nH]c2=O)c2ccccc2c1=O	5212	-18	2.0	-5	7	-2	-5
O=C(Cn1cnc2cc([N+](=O)[O-])ccc2c1=O)NCCc1ccc(F)cc1	2133	-6	-3.7	-3	6	-2	6
Cn1c(=O)[nH]c(=O)c2c1nc(N1CCCC1)n2CC(O)COc1ccccc1 (stereo not drawn)	5843	-20	0.3	-6	2	x	x
O=C(O)c1ccccc1SCc1cn2ccccc2n1	2053	-6	5.5	-10	15	16	6
CCCCNC(=S)Nc1ccc2[nH]c(=O)[nH]c2c1	4390	3	3.3	0	0	7	3
COc1ccc(NC(=O)N2CCn3c2nc2ccccc23)cc1	19709*	-33	3.0	-3	-12	3	8
O=C(c1cn(-c2ccccc2)nc1-c1ccccc1)N1CCN(c2ccccn2)CC1	3728	-37	4.7	2	14	-1	-5
C=CCOC(=O)C(C#N)c1nc2ccccc2nc1N1CCC(C(=O)OCC)CC1 (stereo not drawn)	4409	-10	5.4	6	2	x	x
CCN(CC(=O)Nc1ccc(C(=O)OC)cc1)Cc1ccccc1	2010	-16	1.2	2	2	5	-3
CC(=NOc1nc(C)cc(C)n1)c1ccc(F)cc1	x	x	4.5	x	-7	5	8
CCOc1ccccc1NC(=S)N1CCCc2ccccc21	4525	-30	9.8	2	3	-6	-3
Cc1nc2c3ccccc3nc(NNC(=O)CCC(=O)NC(C)C)n2n1	2115	-9	4.8	5	-4	8	1
Cc1c(NC(=O)C(C)OC(=O)COc2ccc(C#N)cc2)c(=O)n(-c2ccccc2)n1C (stereo not drawn)	4896	-15	5.2	8	10	10	-3
O=C(COC(=O)c1ccc(O)cc1)Nc1nccs1	4349	-23	8.9	2	16	9	9
COc1cc(C)ccc1OCc1cc(C(=O)N2CCCCCCC2)no1	6041	-11	-1.3	5	-2	-6	3
CC1CCCCN1Cc1c[nH]c2ccccc12 (stereo not drawn)	4316	-19	2.7	2	0	0	-2
CCOC(=O)c1cc(S(=O)(=O)N(C)Cc2ccccc2)cn1C	4789	-13	2.7	7	1	2	9
CCCc1cc(=O)[nH]c2nnc(SCC(=O)Nc3ccc(NC(C)=O)cc3)n12	u	-17	1.5	-1	4	1	4
COc1cc2nc(N(C)CCCNC(=O)C3CCCO3)nc(N)c2cc1OC (stereo not drawn)	x	x	1.1	2	-3	-1	1
Cc1nc2ccc(S(=O)(=O)NCC(=O)N(C)Cc3ccccc3)cc2s1	4511	-11	4.9	3	2	-10	0
CC(C)C[C@@H](CO)N1CCN(Cc2ccccc2)CCC1=O	2971	-13	x	0	x	x	x
COc1ccccc1NC1=C(N2CCCCC2)C(=O)c2ccccc2C1=O	2328	-4	1.7	23	6	2	14
CCCCOc1ncnc2c1[nH]c1ccc(F)cc12	4398	-42	3.1	12	-11	2	-6
Cc1ccc(C(=O)Nc2cc(Cl)ccc2OC(=O)c2ccc(C)cc2)cc1	x	x	11	0	-11	6	13
COc1ccc2nc3oc(C(=O)N4CCN(c5ccccc5F)CC4)cc3cc2c1	4598	-12	2.4	-1	1	x	x
CC1Cc2cc(-c3csc(NC(=O)Cc4ccccc4)n3)ccc2N1S(C)(=O)=O (stereo not drawn)	13371	-27	7.2	3	-5	5	3
